High-throughput results from PubChem BioAssay.
Sa helicase inh – S. aureus DNA helicase inhibition; purified S. aureus helicase, fluorescence unwinding assay; about half of the hits fall short of the stated cut; inhibition, %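 (tested at about 80 µM)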; 120,000 compounds, 0.05% hits; AID 485395;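 active = both duplicates at 50% or more, or one of them with a favoured structure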;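 also: 0% = mean of negative control wells and 100% = mean of positive control wells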
MgrA DNA FP – modulators of Staphylococcus aureus MgrA DNA binding. fluorescence polarization. inhibition, %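 (about 10 µg/mL by stock and volumes)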. 84,000 compounds, 0.13% hits. AID 602314;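 active = above 50% in either of two replicates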;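 also: 0% = protein plus DNA without compound and 100% = DNA alone without protein; higher means less MgrA bound to DNA so lower polarization; one replicate is shown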
The depositor's hits bear a star; nt = not tested or not shown. The list is partial (hit frequency here may not be typical).

structure,Sa helicase inh,MgrA DNA FP
N#Cc1ccc(/C=N/NC(=S)Nc2ccc(S(=O)(=O)N3CCOCC3)cc2)cc1,-7,nt
COc1ccc(/C=C2/SC(=S)N(CC(=O)NCc3ccccc3)C2=O)cc1,-25,nt
Cc1ccc(-c2csc(=Nc3ccccc3)n2CCCN(C)C)cc1,11,-0.6
CC1CC(C)CN(C(=O)NC2(C(F)(F)F)Oc3ccc(Cl)cc3O2)C1 (stereo not drawn),-30,nt
C(=Nc1ccc2ccccc2c1)Nc1ccc2ccccc2c1,nt,-0.7
COC(=O)c1c(-c2c(Cl)cccc2Cl)noc1NC(=O)N(C)C,nt,-0.4
CCn1c(SCC(=O)NC(C)C)nnc1-c1ccco1,3,nt
Cc1nc2ccc(N3NOC=C3O)cc2s1,32,nt
COc1ccc2[nH]c(=O)c(CN(Cc3ccco3)C(c3nnnn3Cc3ccccc3)C(C)C)cc2c1 (stereo not drawn),-2,2.2
Cc1nc2sccn2c(=O)c1S(=O)(=O)Nc1ccccc1,14,nt
COc1nc(NCc2ccccc2)nc(NCc2cccnc2)n1,nt,2.6
Cc1ccc2cc(CCNC(=O)C3CCCCC3)c(=O)[nH]c2c1C,-22,nt
CN(C)c1ccc(/C=C/CN2CCC(O)CC2)cc1,7,-1.1
CC(C)Cn1cc(NC(=O)N(C)Cc2ccco2)c2ccccc2c1=O,17,nt
O/N=C/C1=C(Cl)c2ccccc2CC1,nt,-1.2
Cn1nc(-c2ccc(C=N/C(C#N)=C(\N)C#N)s2)cc1C(F)(F)F,nt,0.2
Fc1ccc(N=C(CN2CCCCC2)N2CCCCC2)cc1,8,-1.3
CCOC(=O)N1CCC(N/C=C(\C#N)S(=O)(=O)c2ccc(Cl)cc2)CC1,-18,nt
COC(=O)c1csc2c(C(F)(F)F)cc(N3CCN(C(=O)c4ccco4)CC3)nc12,nt,-2.2
Nc1csc2cc(C(F)(F)F)cc(Cl)c12,nt,-0.7
O=C(CN1C(=O)/C(=C/c2ccccc2F)Sc2ccccc21)NCc1ccc2c(c1)OCO2,16,3.0
CN(CCc1ccccn1)C(=O)c1sc2ccccc2c1Cl,nt,-0.9
COc1ccc(OC)c(C2NC(=O)NC(C)=C2C(=O)OCCCBr)c1 (stereo not drawn),nt,-1.4
c1ccc2c(c1)CCN2Cn1nnc2ccccc21,nt,-0.6
O=C(Nc1ccc(C(F)(F)F)cc1)c1ccc2c(c1)CCO2,nt,-0.1

(further entries)
structure,Sa helicase inh,MgrA DNA FP
CCOC(=O)c1c(Cc2cccc(C)c2)c[nH]c1-c1ccccc1,9,0.9
CC(O)c1ccc(N(C)C)c2c(N(C)C)cccc12 (stereo not drawn),-19,1.8
O=C(Nc1ccc(F)cc1)C1c2ccccc2Oc2ccccc21,3,0.3
O=C(COC(=O)c1ccc(F)cc1Cl)c1ccc(Br)cc1,-8,-1.4
CN(C)c1ccc(NC(=O)COC(=O)C2=NNC(=O)CC2)cc1,-10,nt
COc1cccc(N2CCN(S(=O)(=O)c3ccc(CN4C(=O)c5cccnc5C4=O)s3)CC2)c1,-27,nt
CCCCNC(=O)C1CCCN1S(=O)(=O)c1cccc2nsnc12 (stereo not drawn),2,nt
CSc1c(C#N)c(-c2ccccc2)nn1CC(=O)NN,nt,-0.6
CC(C)(C)c1cc(C(=O)NNS(=O)(=O)c2ccccc2)n[nH]1,nt,-2.0
O=C(NCCc1ccncc1)Nc1ccc(Cl)cc1,-8,-2.3
Cc1cc(CSc2nnc(NC3CC3)s2)no1,-8,nt
CC(C)(C)OC(=O)N1CCN(CCNC(=O)c2ccccc2)CC1,nt,-0.8
Cc1ccc(S(=O)(=O)NCC(=O)O)c2nsnc12,nt,-3.1
COc1ccc(CC(=O)Cn2c(SCc3ccc(F)cc3)nc3ccncc32)c(OC)c1,-13,nt
CCOC(=O)c1sc(SC#N)c(-c2ccccc2)c1N,25,1.8
O=C(CSc1ncn[nH]1)c1cccc(C(F)(F)F)c1,-11,nt
Cc1nc2ccccc2c2nc(N)nn12,10,-0.2
Cn1cc(C2=C(c3cn(CCCSC(=N)N)c4ccccc34)C(=O)NC2=O)c2ccccc21,nt,1.2
Cc1ccc(C)c(S(=O)(=O)c2nnn3c2nc(NCCC(C)C)c2ccccc23)c1,14,-0.5
Cc1ccc(S(=O)(=O)N2CCN(S(=O)(=O)c3cccs3)CC2)cc1,4,-0.8
Clc1ccc(C(Cn2ccnc2)OCc2c(Cl)cccc2Cl)c(Cl)c1 (stereo not drawn),nt,-0.5
O=C(OCCN1C(=O)c2ccccc2C1=O)c1c2c(nc3ccccc13)CCC2,4,nt
CN(C)c1ccc(/C=C2/C=C(c3ccccc3)OC2=O)cc1,-90,nt
Cc1cc(N)ccn1,4,nt
c1ccc2[nH]c(CN3CCOCC3)nc2c1,14,-0.4

Look-ups from the list.
MgrA DNA FP with Cc1ccc(S(=O)(=O)N2CCN(S(=O)(=O)c3cccs3)CC2)cc1 is entered as -0.8
MgrA DNA FP with Cc1ccc(C)c(S(=O)(=O)c2nnn3c2nc(NCCC(C)C)c2ccccc23)c1 is entered as -0.5

(list continues)
structure,Sa helicase inh,MgrA DNA FP
COc1nc(C)ccc1-c1noc(-c2ccc(C)cc2)n1,5,nt
N#Cc1cc(C#N)c(SCc2ccc(Cl)cc2)nc1N,10,-0.6
Cc1ccc(CCN2CC(C(=O)NC3CCCCC3)CC2=O)cc1 (stereo not drawn),6,nt
CC1CC(Sc2nnc(-c3cccs3)n2C2CC2)C(=O)O1 (stereo not drawn),-4,nt
COc1cc(C#N)ccc1OC(=O)Cc1coc2ccc3ccccc3c12,1,nt
CC(C)C(CC(=O)O)NS(=O)(=O)c1ccc(F)cc1 (stereo not drawn),3,-2.5
Cc1cc(C)nc(NS(=O)(=O)c2ccc(NC(=O)c3cccc4ccccc34)cc2)n1,nt,-3.0
O=C(Nc1ccc(I)cc1)c1cnccn1,nt,-2.1
CC(C)c1ccc(NC(=O)CSc2n[nH]c(=O)n2C(C)c2ccccc2)cc1 (stereo not drawn),nt,4.8
O=C(CSc1ccccc1C(=O)Nc1ccnn1Cc1cccs1)NCc1ccco1,-9,nt
CCC(C)C(=O)Nc1ccc(Cl)cc1 (stereo not drawn),13,-1.1
COC(Cn1c(-c2cccc(S(=O)(=O)N(C)C)c2)n[nH]c1=S)OC,-7,nt
CCOC(=O)C1CCCN(Cc2ccc(Cl)cc2)C1 (stereo not drawn),7,-1.9
COC(=O)Cn1cnc2scc(-c3ccc(OC)c(OC)c3)c2c1=O,12,nt
CC1CN(C(=O)COC(=O)c2cccc(Cl)c2)CC(C)O1 (stereo not drawn),-10,-0.2
O=C(O)CCC(=O)N1N=C(c2ccc(Br)cc2)CC1c1ccccc1 (stereo not drawn),nt,2.1
Cc1cc(C(=O)Nc2ccc(S(N)(=O)=O)cc2)no1,-17,nt
COc1ccc(-c2nnc3s/c(=C\c4ccco4)c(=O)n23)cc1OC,13,1.3
O=C(CSc1ncccn1)NC1CC2CCC1C2 (stereo not drawn),10,-1.5
O=C(O)COc1cc(OCC(=O)O)c2c(-c3ccccc3)cc(=O)oc2c1,-1,nt
CCOc1ccc(NC(=S)C(C#N)=C2N(C)c3ccccc3N2C)cc1,9,nt
O=C1C=C(NCCN2CCOCC2)CC(c2ccccc2)C1 (stereo not drawn),-40,nt
O=c1c(F)cn(C2CCCO2)c(=O)n1Cc1ccc(Cl)cc1 (stereo not drawn),1,0.4
CC(C)CN(CC(C)C)S(=O)(=O)c1csc(C(N)=O)c1,21,nt
CC1CCCC(NC(=O)CNC(=S)N(Cc2ccccc2)Cc2cccs2)C1C (stereo not drawn),6,1.8

(list continues)
structure,Sa helicase inh,MgrA DNA FP
CC1C(=O)CCC1(C(=O)O)c1ccccc1 (stereo not drawn),4,nt
CCc1nnc(SCC(=O)Nc2ccc3c(c2)OCO3)n1CC1CCCO1 (stereo not drawn),6,-2.7
CCNC(=O)CC1C(=O)N(c2ccc(OC)cc2)C(=O)N1CCOC (stereo not drawn),-12,nt
COCC(C)NC(=O)c1cc(-c2ccco2)on1 (stereo not drawn),7,nt
Cc1ccc(C=Nc2ccc3ccccc3c2)o1,5,0.9
Cn1ccnc1SCc1nccn1Cc1ccc(Cl)cc1,nt,2.9
Cc1cccc(C(=O)c2ccccc2C(=O)O)c1,nt,-3.1
CCOC(=O)c1ccc(N=C2SC(C(=O)Nc3ccccc3Cl)CC(=O)N2C)cc1 (stereo not drawn),nt,0.6
O=c1ccc(-c2n[nH]c(=S)n2-c2ccc(F)c(Cl)c2)n[nH]1,18,9.6
Cc1cc(NS(=O)(=O)c2ccc3c(c2)OCCO3)no1,nt,-4.0
Cn1c(C(C#N)C(=O)c2ccccc2Br)nc2ccccc21 (stereo not drawn),10,nt
CC1CCCCC1NC(=O)CN1CCC(NC(=O)c2cccc(F)c2)CC1 (stereo not drawn),4,-0.8
CC(=O)N1C(=O)/C(=C2\SC(=Nc3ccc(Br)cc3)NC2=O)c2ccccc21,nt,-0.6
Cc1ccc(OCCNC(=O)c2ccc(C(C)(C)C)cc2)cc1,3,-0.5
CCCc1ccc(NC(=S)NC(=O)c2ccccc2)cc1,nt,0.6
O=C(CCn1cccc1)NCCN1CCCCCC1,-25,nt
O=C1c2ccccc2-c2nn(C(=O)c3ccc(Br)s3)c3cccc1c23,2,nt
Clc1ccc(-c2nc(N3CCC4(CC3)OCCO4)c3ccccc3n2)cc1,-6,nt
O=C(NC(=S)Nc1ccccn1)c1ccccc1,nt,-0.1
Cc1ccc(S(C)(=O)=N/C=C2\C(=O)c3sccc3N(C)S2(=O)=O)cc1 (stereo not drawn),nt,0.0
Cc1c(Cl)cccc1NS(=O)(=O)c1cccc2nsnc12,12,0.3
CCOCc1c(C(=O)OCCOc2ccccc2)oc2ccccc12,5,nt
NS(=O)(=O)c1ccc(NC(=O)CCC(=O)Nc2ccc(S(N)(=O)=O)cc2)cc1,-33,nt
NC(=O)c1c(NC(=O)c2ccccc2)sc2c1CCCC2,-14,0.1
O=C1c2ccc(C34CC5CC(CC(C5)C3)C4)cc2C(=O)N1CCN1CCOCC1,3,-3.5

Remaining list, next part
structure,Sa helicase inh,MgrA DNA FP
CCN1C(=O)C(=Cc2ccc(-c3ccccc3F)o2)C(=O)N(CC)C1=S,1,9.0
COc1ccc(NC(N)=S)cc1,nt,-2.1
CN1C(=O)c2ccccc2Sc2ccc(C(=O)O)cc21,11,-1.6
CCOC(=O)C1=C(O)CN=C1C,nt,0.5
CCOC(=O)c1sc2nc(C)nc(NCCCOC)c2c1C,-6,nt
O=C(O)/C=C/C(=O)N1CCc2ccccc21,3,-2.4
CC(C)n1cc(NC(=O)c2cc(-c3ccccc3)on2)cn1,4,nt
CC1SC(NC(=O)COc2ccccc2)=NC1=O (stereo not drawn),1,-1.6
Cc1cc(NC(=O)c2cnc3sccn3c2=O)no1,8,nt
Cc1ccc(NC(=O)OC2CCCCCCC2)cc1,-7,nt
CN1CCN(CCCC(=O)c2ccc(F)cc2)CC1,5,-3.1
Clc1cccc(-c2nnc(-c3ccno3)o2)c1,nt,-3.2
COc1ccccc1CC(CC(=O)O)C(=O)O (stereo not drawn),1,nt
COC(=O)c1sc(-c2ccccc2)cc1NC(=O)C1COc2ccccc2O1 (stereo not drawn),-11,nt
Cc1[nH]nc(-c2ccc(S(=O)(=O)NCCCN3CCCC3)s2)c1C,6,nt
Cc1cc(SC#N)ccc1N,-10,nt
CC(C)CCNC(=O)c1ccc(CS(=O)(=O)c2ccc(Br)cc2)o1,9,2.5
CCOc1ccc2c(-c3ccccc3)cc(=O)oc2c1C,15,nt
CCN(C(=O)CCc1nnc2ccc(NCc3ccccc3)nn12)c1ccccc1,4,nt
COc1ccc(N2CCN(c3ccccn3)CC2)cc1,9,nt
C/C=C\C(=O)NCc1ccc2c(c1)cc(C)n2C,14,nt
CCOC(=O)c1c(-c2ccccc2)oc2c1cc(OC(=O)c1cccc(C)c1)c1ccccc12,nt,-1.5
CC1Cc2ccccc2N1C(=O)CSc1nnc(-c2ccccc2)o1 (stereo not drawn),5,0.8
O=C(O)c1ccc(S(=O)(=O)Nc2ccc3oc(=O)sc3c2)cc1,18,nt
CN(C)c1nc2ccc(O)cc2s1,0,nt

The listing continues:
structure,Sa helicase inh,MgrA DNA FP
COC(=O)C1=C(C)NC(=O)CC1C(=O)NCc1ccccc1 (stereo not drawn),9,-1.6
O/N=C/C(=N/O)c1ccc(Br)cc1,8,0.2
C#CCSc1nnc2n(CC)c(=O)c3c(n12)-c1ccccc1CC31CCCCC1,9,6.0
CNC(=O)Cn1c(-c2cccs2)cc2ccccc21,1,1.1
COc1cccc(C(=O)Nc2ccc(-c3ccc4nnc(C)n4n3)cc2)c1OC,13,nt
CC1=C(C(=O)Nc2ccc(C(=O)NCCCN3CCCCC3)cc2)SCCO1,10,nt
CCC(=O)Nc1ccccc1N1CCN(c2ccc(F)cc2)CC1,12,-0.9
O=C(c1ccccc1)N1CCCCC(S(=O)(=O)c2ccccc2)C1=O (stereo not drawn),4,nt
NC(=S)NNc1ccc(S(N)(=O)=O)cc1,22,nt

Shown with two lines to a compound: 4 of the compounds above
Order of values: Sa helicase inh | MgrA DNA FP
Cc1cc(N)ccn1
→ 4 | nt
CN(C)c1nc2ccc(O)cc2s1
→ 0 | nt
Cc1ccc2cc(CCNC(=O)C3CCCCC3)c(=O)[nH]c2c1C
→ -22 | nt
Clc1cccc(-c2nnc(-c3ccno3)o2)c1
→ nt | -3.2
